# StopGo RLuc: lowers the Renilla signal of an FMDV 2A StopGo reporter. 120,000 compounds, 0.32% hits. AID 1745857. Potency, µM (highest dose often 57.5 µM), inactives show top-dose signal change, negative = less light. HEK cells with a luciferase reporter of 2A StopGo recoding; active means well fitted falling curve with a large enough effect; inconclusive means small, poorly fitted or top-dose-only effect; inactive means no such curve, though single readings can be large or run the other way; further: nearly all actives have a fitted effect of over 55% in size; overnight with compound
# 2A firefly: lowers the firefly signal of an FMDV 2A StopGo reporter | HEK cells with a luciferase reporter of 2A StopGo recoding | Potency, µM (highest dose often 57.5 µM), for the others: top-dose signal change, negative = less light | 120,000 compounds, 0.23% hits; active = well fitted falling curve with a large enough effect; inconclusive = small, poorly fitted or top-dose-only effect; inactive = no such curve, though single readings can be large or run the other way; further: nearly all actives have a fitted effect of over 60% in size; overnight with compound
# Starred values were filed as active, the others as inactive; ? = inconclusive; [ ] = another dose, or the depositor's remark. On the % scale 0 is the no-effect control and ±100 the full control effect; potency means the concentration at half of the fitted maximal effect. Only part of the results is shown, so the mix of outcomes need not match the whole.
SMILES,StopGo RLuc,2A firefly
O=C(COc1ccc(Cl)cc1)Nc1ccc(C(=O)OCc2cc(=O)n3ccsc3n2)cc1,-6.4%,-13.2%
CC(Oc1cccc(Cl)c1)C(=O)NC(C)c1ccccc1 (centres undefined),14.5%,-1.6%
CSCCC(NS(=O)(=O)c1cccs1)C(=O)Nc1ccc(C)c(Cl)c1 (centres undefined),0.0%,-2.4%
Cc1sc2nc(SCc3cccc(Cl)c3)n(CCCN3CCOCC3)c(=O)c2c1C,-1.3%,-0.1%
COc1cccc(NC(=O)C2CCCN(S(=O)(=O)c3ccc4[nH]c(=O)ccc4c3)C2)c1 (centres undefined),12.4%,11.7%
COc1ccc(-c2nn3c(=O)c(NC(=O)c4cccc(C)c4)cnc3o2)cc1,3.2%,8.5%
CNCC12CC3CC(CC(C3)C1)C2,-12.7%,-14.3%
COC(=O)CCC1(C(=O)OC)c2ccccc2-c2ccccc21,9.3%,-5.8%
Cc1nn(CC(=O)Nc2ccccc2)c(=O)c2ccccc12,27.6%,3.4%
Cn1cc(C(=O)NCCNC(=O)C2CCCCC2)c2ccccc21,0.5%,-0.5%
CN1Cc2nnn(CC3CCCCC3)c2-c2ccccc2S1(=O)=O,66.5%[activator],1.3%
COc1ccccc1CNC(=O)c1c[nH]c2ccc(S(=O)(=O)Nc3cc(C)cc(C)c3)cc2c1=O,155.2%[activator],-20.2%
CCOc1ccc(NC(=O)c2nn(C)c(=O)c3ccccc23)cc1S(=O)(=O)N(C)C,313.1%[activator],32.7%[activator]
Cc1nc(SC(C)C(=O)Nc2ccccc2Cl)cc(-c2ccccc2)n1 (centres undefined),-19.5%,-23.2%
CCOc1cc(-c2ccc(OC(=O)c3ccccc3Cl)c(OC)c2)cc(=O)c2c(C)oc(C)c12,-13.1%,-15.2%
Cc1ccc(C2SCC(=O)Nc3n[nH]c(C)c32)cc1 (centres undefined),-10.8%,-11.6%
O=C(Cc1ccc(F)cc1)N1CCC2(CC1)NCCc1[nH]cnc12,0.0%,11.0%
COc1ccc(CC(=O)NC(C)C2CC3CCC2C3)cc1OC (centres undefined),-29.3%,-8.9%
COc1ccccc1Oc1c(C)oc2cc(OCC(=O)Nc3ccc(C)cc3C)ccc2c1=O,-15.0%,-16.2%
Cc1csc(CNC(=O)c2cnc3ccccc3n2)n1,6.8%,81.1%[activator]
Cc1ccc(C)c(OC(=O)CSc2nnc(CNC(=O)c3ccccc3)o2)c1,-3.2%,-11.5%
CC(=O)Nc1cccc(NC(=O)c2nccnc2-c2nc3ccccc3s2)c1,9.8%,101.4%[activator]
O=C(Nc1nccs1)c1csc(NC2CC2)n1,?,-9.9%
CCc1ccc(CCC(=O)NNc2cccc(Cl)c2)cc1,50.9%[activator],19.2%
CC(C)c1cccc(C(C)C)c1NC(=O)CCn1cnc2c1c(=O)n(C)c(=O)n2C,0.6%,8.2%
COC(=O)CCC(C#N)(CCC(=O)OC)c1ccc(OC)c(OC)c1,17.5%,7.3%
CC(=O)c1cccc(NC(=O)C2(c3ccc(C)cc3)CCCC2)c1,5.1%,-2.7%
Cc1cc(Nc2cccc(Cl)c2)nc2ccc(NC(=O)C3CCCCC3)cc12,-11.3%,-16.6%
CC1CCN(c2nnc(-n3cccc3CNc3cccc(F)c3)s2)CC1,23.2%,4.6%
O=C(c1cccc(-n2cccc2)c1)N1CCN(S(=O)(=O)c2ccccc2Br)CC1,8.9%,-8.7%
CCc1ccc(NC(=O)Cn2nnc(C(=O)Nc3cc(C)ccc3OC)c2N)cc1,-7.4%,-11.4%
COc1ccc(CN2C(=O)N(c3cccc(C)c3)C(=O)C2CC(=O)Nc2ccc(F)cc2)cc1OC (centres undefined),13.1%,0.6%
Cc1ccc(N2CCN(C(=O)c3cc4cc([N+](=O)[O-])ccc4oc3=O)CC2)cc1C,-3.5%,12.0%
COC(=O)[C@]12C[C@H](CC(=O)NCc3ccccc3)C(=O)N(CCC3=CCCCC3)C1=C[C@H](C(C)C)O[C@@H]2C1CC1,189.3%[activator],13.7%
CN(Cc1ccccc1)S(=O)(=O)c1cc2c(cc1Cl)Oc1ccccc1NC2=O,-7.5%,-11.3%
Cc1sc(-c2ccco2)nc1C(=O)NC(c1ccccc1)c1nccn1C (centres undefined),2.7%,5.8%
CC(=O)Nc1ccc(NC(=O)c2ccccc2OCC2CCCO2)cc1Cl (centres undefined),35.6%[activator],13.9%
CC(C)(C)CNC(=O)c1[nH]cnc1C(=O)NC1CCCC1,24.1%,19.0%
CCCOc1cccc(C(=O)Nc2cccc(NC(=O)c3ccc(Cl)cc3Cl)c2)c1,-12.8%,-6.6%
O=C(Nc1ccccc1C(F)(F)F)N1CCC(N2CCN(Cc3ccccn3)C(=O)C2=O)CC1,-0.6%,4.9%
COC(=O)c1ccccc1NC(=O)c1ccc(COc2ccccc2Cl)o1,4.7%,-14.0%
COC(=O)C1CCN(S(=O)(=O)c2ccc(N3CCCCS3(=O)=O)cc2)CC1,-30.9%,-17.5%
CC(C)n1nc(C(=O)OCC(=O)Nc2ccccc2Cl)c2ccccc2c1=O,-9.6%,-4.1%
O=C(O)CNC(=O)/C=C/c1cccc(C(F)(F)F)c1,10.2%,17.3%
COc1ccc(CNC(=O)CCc2nnc3n(CC(C)C)c(=O)c4ccccc4n23)cc1,-3.5%,12.1%
CC(Sc1ncc(C(F)(F)F)cc1Cl)C(N)=O (centres undefined),4.8%,10.1%
COC(=O)c1ccc(Cl)cc1NC(=O)N1CCC(CN2CCCC2)CC1,-7.1%,-25.4%
COc1ccc(CCNC(=O)c2c(C)noc2C)cc1,-6.2%,-4.3%
Cc1ccc2[nH]c(=O)c(CN(C(=O)c3cccc(Cl)c3)C(C)(C)C)cc2c1,-11.2%,6.0%
CCOc1cccc(C2c3[nH]c4ccccc4c3CCN2C(=O)CSc2ccccc2)c1 (centres undefined),-2.2%,-7.6%

# (next part)
SMILES,StopGo RLuc,2A firefly
CCOC(=O)c1cc(NC(=O)C(c2ccccc2)c2ccccc2)ccc1N1CCOCC1,15.3%,-3.7%
CCOc1ccc(C(=O)c2cn(CC(=O)Nc3ccc(Cl)cc3)c3cc4c(cc3c2=O)OCCO4)cc1,-13.5%,-4.1%
CCCc1cc(=O)oc2cc(C)cc(OC(C)C(=O)O)c12 (centres undefined),-5.0%,6.1%
Cn1ccnc1CN(C1CC1)S(=O)(=O)c1cc(Cl)ccc1Cl,6.5%,12.6%
COc1cc2c(C(=O)N3CCN(c4cccc(Cl)c4)CC3)cn(C)c(=O)c2cc1OC,-3.2%,4.4%
CCc1ccc(C(=O)CCC(=O)OCc2ccc(C#N)cc2)cc1,-0.6%,-9.0%
Cc1ccccc1-c1noc(C(C)NC(=O)c2ccccc2F)n1 (centres undefined),5.0%,5.9%
CC(C)CNC(=O)NC(=O)CSc1nc2ccccc2c(=O)n1-c1ccccc1F,41.4%[activator],22.4%
N#Cc1ccc(OCCn2cc(S(=O)(=O)N3CCCC3)ccc2=O)cc1,-5.0%,6.6%
Cc1cnc2c(S(=O)(=O)N3CCC(NS(=O)(=O)c4ccccc4)CC3)cccc2c1,328.1%[activator],-9.8%
Cc1ccc(OCC(=O)Nc2ccc(Cl)c(-c3nc4ncccc4o3)c2)cc1C,27.2%,33.7%[activator]
COc1ccc(Cc2nnc(C(=O)NCCCN3CCN(c4ccccc4F)CC3)o2)cc1OC,?,-26.5%
Cc1cccc(C)c1NC(=O)CNC(=O)CCc1ncc(-c2ccccc2F)o1,7.0%,5.0%
N#Cc1ccc(CSc2nnnn2-c2ccccc2)cc1,15.3%,30.4%[activator]
CCN(CC)S(=O)(=O)c1ccc(N(C)C)c(NS(=O)(=O)/C=C/c2ccccc2)c1,157.4%[activator],-1.8%
Cc1ccccc1C(=O)NC(Nc1ccccc1)C(Cl)(Cl)Cl (centres undefined),7.4%,4.8%
Cc1ccc(NC(=S)NNC=O)cc1Cl,7.3%,10.3%
N#Cc1nc(C2CC2)oc1N1CCN(Cc2cccc(Cl)c2)CC1,-12.8%,-1.9%
Nc1c(C(=O)Nc2ccc(OC(F)(F)F)cc2)sc2nc(-c3ccncc3)ccc12,-9.6%,0.0%
O=C(Cc1csc(-c2ccccc2Cl)n1)Nc1nccs1,?,9.5%
Cc1ccc(NC(=O)CSc2n[nH]c(=O)c3cc(-c4ccco4)nn23)cc1C,5.6%,56.6%[activator]
Cc1cccc(-n2nc(C)c(C(=O)Nc3cc(C)ccc3C)c2-n2cccc2)c1,-15.9%,-17.2%
Cc1cn2c(=O)cc(COC(=O)c3ccc(NC(=O)c4ccc(F)cc4)cc3)nc2s1,-8.6%,-28.3%
CC1=CC(C)(C)N(S(=O)(=O)c2ccc(F)cc2)c2ccccc21,25.4%,12.8%
Cc1nn(CC(=O)Nc2cc(F)ccc2F)c(=O)c2cccn12,-6.2%,-18.5%
COc1ccc(CNC(=O)Cc2c(C)c3cc4c(C)coc4cc3oc2=O)cc1OC,-3.3%,-10.7%
CCOc1ccccc1NC(=O)c1c(NCc2cccs2)sc2c1CCCCC2,80.0%[activator],-13.3%
CN1CCN(CCCNC(=O)Cn2c(-c3cccs3)cc3cc(Cl)ccc32)CC1,-12.4%,-3.2%
Cc1c(CCC(=O)NCc2ccc3c(c2)OCO3)c(=O)oc2c(C)c(O)ccc12,-1.4%,-7.9%
COC(=O)CCCNC(=O)C12CC3CC(CC(C3)C1)C2,-10.5%,?
O=c1nc(-c2ccccc2Cl)c2cc(F)ccc2[nH]1,0.8%,-2.3%
CON(C)C(=O)C(NC(=O)c1ccc(F)cc1)C(C)C (centres undefined),6.6%,0.1%
CC(C)C12CN3CC(C(C)C)(CN(C1)C3c1ccc(OCc3ccccc3)cc1)C2=O (centres undefined),-6.1%,-6.4%
Cc1ccc(-c2ccc(/C=C(\C#N)c3ccccc3)o2)cc1,27.7%,0.0%
CCCn1c(NC)nc2c1c(=O)n(C)c(=O)n2C,13.2%,6.5%
CCOc1ccc(C(=O)Nc2c(C(=O)Nc3ccccc3OC)oc3ccccc23)cc1OCC,-22.5%,0.0%
COc1ccc(C(=O)NNc2ncnc3c2cnn3-c2ccc(C)c(Cl)c2)cc1,-11.0%,28.9%
COC(=O)C1CN(Cc2cn(CCC3OCCO3)nn2)CCS(=O)(=O)N1Cc1ccc(C)cc1 (centres undefined),-7.5%,-4.1%
CCCCCCCCCCOc1ccc(OC(=O)c2ccncc2)cc1,-4.9%,17.2%
CCc1ccc(NC(=O)NCCc2c(C)nn(C)c2C)cc1,19.4%,126.0%[activator]
COc1cc(CNC(=O)Cn2c(=O)c3c(ncn3C)n(C)c2=O)ccc1OC(F)F,-3.8%,2.5%
CCCCNC(=O)CN1CCN(C(=O)c2cc(-c3cccs3)nc3ccccc23)CC1,25.0%,0.0%
CC1CCN(S(=O)(=O)c2ccc3c(ccn3CCC(=O)NCCCN3CCOCC3)c2)CC1,81.5%[activator],-5.4%
Cc1cccc(NC(=O)CSc2nnc(CNC(=O)c3c(F)cccc3Cl)o2)c1C,-6.2%,-4.7%
CCCCCCCNC(=S)Nc1ccccc1F,104.9%[activator],61.1%[activator]
CN1CCN(C(=O)CNc2nc(Cl)nc3nc[nH]c23)CC1,-4.2%,4.2%
CCCc1nn2c(=O)cc(COC(=O)c3ccc4c(c3)OCO4)nc2s1,-11.9%,-9.6%
O=C(Nc1ccc(Cl)c(C(F)(F)F)c1)c1ccc(F)cc1F,-4.0%[1.06 µM],161.3%[activator]
Cc1cc(C)n2nc(CC(=O)Nc3nc(-c4c(F)cccc4F)cs3)nc2n1,7.5%,152.0%[activator]
Cc1ccc2cc(CN(C(=O)c3ccccc3)c3ccccc3C)c(=O)[nH]c2c1,0.9%,6.4%

# A different layout for 2 compounds above.
CN1CCN(C(=O)CNc2nc(Cl)nc3nc[nH]c23)CC1
  StopGo RLuc: -4.2%	2A firefly: 4.2%

CCCc1nn2c(=O)cc(COC(=O)c3ccc4c(c3)OCO4)nc2s1
  StopGo RLuc: -11.9%	2A firefly: -9.6%

# The list continues:
SMILES,StopGo RLuc,2A firefly
Cc1ccccc1C(=O)CC(=O)c1ccccc1C,21.9%,133.4%[activator]
COc1ccc(NC(=O)C(C)Oc2ccc(C)c(C)c2)c2cccnc12 (centres undefined),?,?
Cc1ccc(S(=O)(=O)N2CCCc3ccccc32)cc1,136.8%[activator],33.9%[activator]
COc1ccc(CNC(C)Cc2ccccc2)cc1 (centres undefined),-3.9%,1.0%
Cc1ccc(C2c3c(-c4cc(C)ccc4O)n[nH]c3C(=O)N2Cc2ccco2)cc1 (centres undefined),2.9%,-8.7%
NC1=NC(c2c[nH]c3ccccc23)n2c(nc3ccccc32)N1 (centres undefined),-21.5%,-15.8%
O=C(COc1ccc(Br)cc1)Nc1ccc2c(=O)c3ccccc3oc2c1,-0.6%,100.7%[activator]
CCOc1ccc(CN2C(=O)c3ccccc3Sc3ccc(C(=O)O)cc32)cc1,0.0%,4.0%
COc1ccccc1OC(C)C(=O)c1cccc(Cl)c1 (centres undefined),33.7%[activator],0.0%
Cc1nn(CC(O)c2ccccc2F)c(=O)c2ccccc12 (centres undefined),36.8%[activator],147.4%[activator]
CCC(C)Cc1c(C)sc2nc(CNc3ccc4c(c3)OCO4)[nH]c(=O)c12 (centres undefined),2.4%,29.2%
CCc1cccc(NC(=O)CN(c2ccc(C)cc2)S(=O)(=O)c2cccs2)c1,20.8%,-26.2%
